Screening results from PubChem BioAssay.
StopGo reporter: High Throughput Screening for Foot and Mouth Disease Virus Antivirals; 1.2% of 410,000 active; AID 1159524, 2015; Potency, µM (series often up to 57.9 µM), for inactives: at the top dose signal change, negative = less light; human cells with a luciferase reporter of 2A StopGo recoding; control for the full effect not named in the record; active = well fitted falling curve with a large enough effect; inconclusive = small, poorly fitted or top-dose-only effect; inactive = no such curve, though single readings can be large or run the other way; tested in HEK293T cells; note: nearly all actives have a fitted effect of over 45% in size; luciferase light after 4 h
RE007 growth inh: qHTS Assay for Inhibitors of the HIV-1 protein Vpr. S. pombe RE007 Vpr strain, BacTiter-Glo ATP luminescence, 24 h; control for the full effect not named in the record. Potency, µM (top dose mostly 92.2 µM), without a hit: top-dose activity change, negative = less growth. 0.21% of 360,000 active; active = well fitted falling curve with a large enough effect; inconclusive = small, poorly fitted or top-dose-only effect; inactive = no such curve, though single readings can be large or run the other way;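 note: nearly all actives have a fitted effect of over 50% in size; the assay follows cell death caused by Vpr and the record does not say whether a fall means rescue or toxicity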
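Fission yeast strain RE007, carrying one chromosomally integrated HIV-1 vpr copy, was seeded at OD 0.01 in PMG+AL medium with 23 nL pinned compound. After 24 h at 30 °C and 99% humidity, viability was read by BacTiter-Glo luminescence.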
An asterisk follows results filed as active; ? = inconclusive; [ ] = another dose, or the depositor's remark. % is set by controls: 0 for no effect and ±100 for the full control effect; potency is the fitted concentration of half-maximal effect.

item	SMILES	StopGo reporter	RE007 growth inh
1	Cc1nc(N/N=C/c2cccc([N+](=O)[O-])c2)cc(N2CCCCC2)n1	0.0%	-9.4%
2	COCOCCn1cc(CN2CCS(=O)(=O)N(Cc3ccc(-c4ccc(OC)nc4)cc3)C(C)C2=O)nn1 (stereo not drawn)	-21.7%	-23.9%
3	CC(C)c1cc(Cn2c3ccccc3c(=O)n2C(C)Cn2cc(C3=CCCCC3)nn2)on1 (stereo not drawn)	4.7%	-6.8%
4	CC(CC(=O)c1ccccc1)=NCC(O)CN=C(C)CC(=O)c1ccccc1 (stereo not drawn)	-1.6%	-28.6%
5	COc1ccc(C(C#N)=Cc2ccccc2OC)cc1	-13.0%	-11.3%
6	OC[C@@H]1CN(Cc2ccc3c(c2)OCO3)C[C@H](n2cnc3c(N4CCCC4)ncnc32)O1	-17.0%	-3.9%
7	COC(=O)[C@@]12C[C@@H](CC(=O)NCCc3ccccc3OC)C(=O)N(Cc3cccc4ccccc34)C1=CCC(C)(C)C2	-3.6%	-5.3%
8	CCNC(=O)C1CCCN(C(=O)c2ccc(C)c(F)c2)CC1 (stereo not drawn)	-15.9%	1.1%
9	COC(=O)C1CC2=C(CC(C)(C)CC2=O)N(c2ccccc2)C1=O (stereo not drawn)	2.4%	5.9%
10	O=C1c2ccccc2S(=O)(=O)c2cc(N3CCC(C(=O)N4CCCCC4)CC3)ccc21	-17.1%	11.5%
11	COc1cc(Cn2c3ccc(NC(=S)NCc4ccc(C)cc4)cc3c(=O)n2C)ccc1F	-15.2%	-4.1%
12	COc1ccc(-c2oc3c4c2C(=O)OCCOC4CCC3)cc1 (stereo not drawn)	-7.1%	-23.4%
13	COc1cccc2oc(CCc3ccccc3)cc(=O)c12	44.4%[activator]	8.4%
14	COc1ccc(C(=O)CN2CCN(CCN3C(=O)c4cccc5cccc(c45)C3=O)CC2)cc1	?	-6.2%
15	CC[C@H](C)[C@H]1CNC(=O)C(=O)N1CC1CCN(CC2CCC(C)CC2)CC1 (stereo partly drawn)	-2.7%	-16.2%
16	NC(=O)CSc1nnc(-c2ccco2)n1-c1ccc(F)cc1	-6.3%	-0.7%
17	COc1ccc(CN2C(=O)CSCC2(C)C(=O)NCc2ccccc2)cc1OC (stereo not drawn)	-8.4%	0.0%
18	Fc1cccc(CCN2CCNC[C@@H]2Cc2ccccc2)c1	-6.8%	17.3%
19	COc1ccccc1N(C)S(=O)(=O)c1ccc(C(=O)NCc2ccccc2CN2CCCC2)cc1	-23.9%	2.9%
20	Cc1nc(SCC(=O)Nc2c(C)n(C)n(-c3ccccc3)c2=O)c2cnn(-c3ccccc3)c2n1	?	-1.8%

Given with two lines to a compound: part of the list above
Values run as follows: StopGo reporter, RE007 growth inh
18. Fc1cccc(CCN2CCNC[C@@H]2Cc2ccccc2)c1
    -6.8%, 17.3%
19. COc1ccccc1N(C)S(=O)(=O)c1ccc(C(=O)NCc2ccccc2CN2CCCC2)cc1
    -23.9%, 2.9%

Going on with the list:
item	SMILES	StopGo reporter	RE007 growth inh
21	CN(Cc1cccc(F)c1)C(=O)C1CC(=O)N(Cc2ccco2)C1 (stereo not drawn)	-2.7%	-1.0%
22	CC(C)(C)c1ccc(CC(=O)N2CCC2(C)C(=O)NS(=O)(=O)Cc2ccccc2)cc1 (stereo not drawn)	-7.8%	4.5%[18.4 µM]
23	COc1ccc(NC(=O)N(C)[C@H]2C[C@H]3c4[nH]c5ccc(-c6ccc(OC)cc6)cc5c4CCN3C(=O)[C@H]2[C@H](C)O)cc1	-23.0%	1.6%
24	CCN1C(=O)[C@H]2[C@@H](c3ccc(C(F)(F)F)cc3)N[C@]3(CCCN(Cc4ccc(F)cc4)C3=O)[C@H]2C1=O	-27.2%	3.9%
25	Nc1cc(C(=O)Nc2ccccc2F)ccc1N1CC2CC(C1)c1cccc(=O)n1C2 (stereo not drawn)	12.7%	-1.1%
26	Cn1cc(-c2ccc(C(=O)NCc3cccc(Cl)c3)c3occc23)cn1	40.0%[activator]	3.9%
27	COCCCN1C(=O)C(CC(=O)NCCc2ccccn2)CC(C(=O)N2CCOCC2)=C1C (stereo not drawn)	7.5%	-8.3%
28	CCOc1ccc(NC(=O)c2ccc3c(c2)S(=O)(=O)N=C2CCCCCN23)cc1	-16.0%	5.5%
29	CC(C)NC(=O)N(C)C[C@@H]1OCc2cnnn2CCCC(=O)N([C@H](C)CO)C[C@H]1C	-7.2%	-10.7%
30	CC1(C(=O)NS(=O)(=O)c2ccc(C#N)cc2)CCN1C(=O)CC1CCCCC1 (stereo not drawn)	-1.9%	2.7%[18.4 µM]
31	COc1cc(NC(=O)COc2cc(C)cc3oc(=O)cc(C)c23)cc(OC)c1OC	-4.2%	9.8%
32	CC(=O)c1cccc(NC(=O)c2cccc3c(-c4cccnc4)coc23)c1	?	0.0%
33	CCC1NC(=O)c2cc3ccccc3cc2-n2c1nc1ccc(OC)cc1c2=O (stereo not drawn)	-24.2%	5.9%
34	CNc1nc(NCc2ccc(N(C)C)cc2)c2sccc2n1	0.0%	?
35	COC(C[C@@H](O)C[C@H](O)[C@H](C)OCc1ccccc1)OC	-7.8%	-9.2%
36	CC1(C(=O)Nc2ccc3c(c2)OCCO3)CSCC(=O)N1CCCN1CCOCC1 (stereo not drawn)	-8.1%	9.4%
37	COC1CCN(C(=O)c2cc(COc3cc(C)ccc3C)on2)CC1	20.0%	-15.8%
38	O=C(Nn1cnnc1)c1ccc([N+](=O)[O-])cc1Cl	-8.5%	-2.1%
39	COC(=O)C1=C[C@@H](C(=O)OC)[C@@H]2C3=C(C(=O)[C@]2(C)NC(=O)c2ccccc2)[C@H](C)n2c(=O)n(C)c(=O)n2[C@@H]3C1	-9.6%	4.6%
40	Cc1cccc(N2CCN(C(=O)c3[nH]c(C(F)(F)F)nc3-c3ccccc3)CC2)c1C	-10.3%	-6.8%

Quoted from the listing.
In RE007 growth inh, COc1cc(NC(=O)COc2cc(C)cc3oc(=O)cc(C)c23)cc(OC)c1OC is entered as 9.8%
In StopGo reporter, COC(C[C@@H](O)C[C@H](O)[C@H](C)OCc1ccccc1)OC is entered as -7.8%

(further entries)
item	SMILES	StopGo reporter	RE007 growth inh
41	CC(C)(C)C(=O)c1c(N)[nH]c(C(=O)c2ccccc2)c1-c1ccc(Cl)cc1Cl	-11.0%	10.2%
42	COc1ccc(-c2cc3nc(NCCCN(C)C)n(C)c(=O)c3s2)c(C)c1	-13.5%	0.6%
43	Cc1cccc(C)c1NC(=O)C(C)n1c(-c2ccc(=O)[nH]c2)nc2ccccc21 (stereo not drawn)	15.3%	-13.7%
44	CCNC(=O)C1(C)CCN(C(=O)c2cc(OC)c(OC)c(OC)c2)C1 (stereo not drawn)	-10.3%	2.2%
45	COc1ccc(-c2cc3nc(-c4ccccc4)cc(N4CCN(C(=O)c5ccccc5)CC4)n3n2)cc1	?	-10.4%
46	CC1(C(=O)NS(=O)(=O)c2cccc(C#N)c2)CCN1C(=O)Cc1ccccc1 (stereo not drawn)	-11.9%	5.4%
47	CC1=C(C(=O)N(C(C)C)C(C)C)CC(CC(=O)NCc2ccco2)C(=O)N1CCC1=CCCCC1 (stereo not drawn)	5.4%	-9.6%
48	Cc1ccccc1CC(=O)Nc1ccc2c(c1)c(=O)n(C)n2-c1cccs1	23.0%	9.7%
49	CCc1nc2c(OCc3ccc4c(c3)OCO4)cccn2c1N(C=O)Cc1ccc(OC)cc1	-3.5%	-14.3%
50	Cc1ccc(S(=O)(=O)N(C)C[C@@H]2OCc3cnnn3CCCC(=O)N([C@@H](C)CO)C[C@H]2C)cc1	-12.3%	-9.9%
51	c1ccc(-c2cc(-c3cc(-c4ccccc4)on3)no2)cc1	58.2%[activator]	6.2%
52	COc1cc2ccc(-c3ccc4ccccc4n3)cc2cc1OC	28.8%	-12.9%
53	CC(C)n1nc(C(=O)OCC(=O)NCCc2ccc(S(N)(=O)=O)cc2)c2ccccc2c1=O	-9.6%	9.4%
54	CC1(C(=O)NCc2ccc3c(c2)OCO3)CCN1C(=O)C1(c2ccc(Cl)cc2)CC1 (stereo not drawn)	-4.1%	20.5%[18.4 µM]
55	Cc1cc(S(=O)(=O)NC(=O)[C@H]2O[C@@H](n3cnc4c(N)ncnc43)[C@H](O)[C@@H]2O)ccc1Br	-23.8%	10.6%
56	COc1cccc(-c2cnc3c(NC(C)=O)cc(-c4ccc(S(C)(=O)=O)cc4)cn23)c1	-18.2%	4.1%
57	CCOC(=O)[C@]12CCC=C1N(Cc1ccc(Cl)cc1Cl)C(=O)[C@H](CC(=O)NCC13CC4CC(CC(C4)C1)C3)C2	-4.4%	-2.9%
58	COc1cc(NC(=O)CCN2CCN(c3ccccc3OC)CC2)cc(OC)c1	?	-11.0%
59	COc1ccc(C(O)c2nc(-c3ccc(OC)c(OC)c3)cs2)cc1 (stereo not drawn)	-9.0%	1.2%[18.4 µM]
60	O=C(Nc1ncccc1O)c1ccc(S(=O)(=O)NCc2ccco2)cc1	26.9%	5.0%
61	CCCCCCCCCNC(=O)[C@H](NC(=O)COc1ccccc1)[C@@H]1NC(C(=O)OC)C(C)(C)S1 (stereo partly drawn)	22.9%	4.2%
62	Cn1cc(-c2csc(C(O)(c3ccccc3)C(F)(F)F)n2)cn1 (stereo not drawn)	3.9%	1.4%[18.4 µM]
63	CC1(C(=O)NS(=O)(=O)c2ccccc2C(F)(F)F)CCN1C(=O)c1cccc(F)c1 (stereo not drawn)	-8.5%	11.4%
64	CC1(C(=O)NS(=O)(=O)c2ccccc2Cl)CCN1C(=O)COc1ccc(Cl)cc1 (stereo not drawn)	1.5%	12.4%[18.4 µM]
65	CCOc1ccc(-c2cc(C(=O)NCc3ccc(F)cc3)[nH]n2)c(C)c1	3.1%	5.5%
66	CCOC(=O)c1ccc(NC(=O)c2nc[nH]c2C(=O)NC[C@@H](C)O)cc1	?	-26.4%
67	COc1ccccc1NC(=O)C(C)OC(=O)C1CC(=O)N(Cc2ccco2)C1 (stereo not drawn)	-0.4%	4.5%
68	COc1ccc(-c2cc(NC=O)c3ncc(-c4ccc(C(C)=O)cc4)n3c2)cc1OC	-25.5%	-5.1%
69	COc1ccc([C@H]2N[C@]3(CCCN(Cc4ccc(Br)cc4)C3=O)[C@H]3C(=O)N(Cc4ccccc4)C(=O)[C@@H]23)cc1	0.0%	12.0%
70	COc1ccc2ccccc2c1/C=N/NC(=O)c1cccc(C)c1	-7.4%	-6.5%
71	CCCS(=O)(=O)NC(=O)C1(C)CCCN(C(=O)c2cc(C)nn2C(C)(C)C)C1 (stereo not drawn)	-12.1%	0.9%
72	CC(C)NC(=O)C1(C)CSCC(=O)N1C1CC1 (stereo not drawn)	-9.9%	5.4%
73	CN(Cc1ccccc1F)c1cc2c(c3c1ccn3C)C1CCC2C1 (stereo not drawn)	-7.8%	-21.7%
74	CCC(=O)N1CCCC1(C)C(=O)Nc1ccc2scnc2c1 (stereo not drawn)	-3.2%	6.5%
75	Cn1c(NCCOc2ccccc2Cl)nc2cc(-c3ccc(F)cc3)sc2c1=O	-16.4%	-5.9%
76	Cc1ccccc1P(=O)(c1ccccc1)c1ccccc1C	-24.1%	-26.8%
77	COc1ccc(OCCN2CCC(C(=O)NC(c3ccc(Cl)cc3)c3ncccc3C)CC2)cc1 (stereo not drawn)	-3.4%	-11.0%
78	CC(C)CC(N)c1csc(NC(=O)NCCc2ccccc2)n1 (stereo not drawn)	-19.4%	2.3%
79	COc1ccc(NC(=O)c2cc(C3CCCCN3C(=O)c3ccccc3)on2)c(C)c1 (stereo not drawn)	-18.3%	14.3%
80	Cc1cccc(NS(=O)(=O)c2ccc(C)c(C(=O)NCC(c3cccs3)N3CCOCC3)c2)c1 (stereo not drawn)	50.7%[activator]	6.2%
81	CC(C)c1ccc(C(=O)N2CCCCC2c2cc(C(=O)NCc3cccnc3)no2)cc1 (stereo not drawn)	3.2%	-1.6%
82	Clc1ccc(C(Cn2ccnc2)OCc2csc3c(Cl)cccc23)c(Cl)c1 (stereo not drawn)	-2.3%	?
83	COc1ccc(-c2ccc(C(=O)NCCc3ccccc3)c3occc23)c(C)c1	19.3%	-10.3%[18.4 µM]
84	CNC(=O)C[C@H]1C(=O)N(CCc2ccccc2)C[C@@H]1C	-15.8%	-18.8%
85	Brc1ccc(-c2nc3ccc(Br)cn3c2Cc2ccccc2)cc1	18.4%	-9.5%
86	O=C(NCc1ccccc1)c1onc(CSc2ccccc2)c1C(=O)NCc1ccccc1	-15.8%	11.5%
87	O=C1CCSC2=C1SCc1sccc12	-18.5%	-9.8%
88	COc1ccc(-c2nc3ccc(Cl)cn3c2CC(C)(C)C)cc1OC	-23.0%	-13.9%
89	Cc1cccc(C(O)c2ncc(-c3ccc4ccccc4c3)[nH]2)c1C (stereo not drawn)	39.0%[activator]	-15.1%[18.4 µM]
90	COc1ccc(CN2C(=O)C(CC(=O)NCCc3ccccn3)CC(C(=O)N(C(C)C)C(C)C)=C2C)cc1 (stereo not drawn)	?	-7.2%
91	COc1ccc(-c2nc3c(Cl)cc(C(F)(F)F)cn3c2Cc2ccc(C)cc2)cc1OC	-14.7%	0.3%
92	CCOC(=O)C1CCN(C(=O)c2ccc3c(=O)n4nc(Nc5ccccc5OC)sc4nc3c2)CC1	-23.4%	3.0%
93	CCOC(=O)C1(C)CCCCN1C(=O)c1ccc(F)c(C)c1 (stereo not drawn)	0.0%	-2.9%
94	CC(C)CC(c1nc2ccccc2[nH]1)n1c(-c2ccccc2Br)nc2ccccc21 (stereo not drawn)	-11.0%	7.5%
95	C[C@H](CO)N1C[C@H](C)[C@@H](CN(C)S(C)(=O)=O)OCc2cnnn2CCCC1=O	-2.4%	-9.6%

An excerpt, so the mix of outcomes need not match the whole.
